# VACV mCherry inh: inhibitors of vaccinia virus infection (mCherry reporter signal); Potency, µM (highest dose often 36.5 µM), for the others: top-dose activity change, negative = inhibition, most hits filed as inhibitors; Vaccinia virus mCherry reporter infection, fluorescence; about a quarter of the inactives have no number; 310,000 compounds, 0.63% hits; active = well fitted inhibition curve with a large enough effect; inconclusive = small, poorly fitted or top-dose-only effect; inactive = no such curve, though single readings can be large or run the other way; tested in A549 cells; note: nearly all actives have a fitted effect of over 35% in size; inactives centre near -10
# VACV Venus inh: vaccinia inhibition (Venus reporter); Vaccinia virus Venus reporter expression, fluorescence; Potency, µM (top dose mostly 36.5 µM), inactives show at the top dose activity change, negative = inhibition, hits mostly inhibitors; 330,000 compounds, 0.46% hits; active means well fitted inhibition curve with a large enough effect; inconclusive means small, poorly fitted or top-dose-only effect; inactive means no such curve, though single readings can be large or run the other way; tested in A549 cells; note: nearly all actives have a fitted effect of over 30% in size; inactives centre near -10
# Numbers without * were called inactive; i = inactive; ? = inconclusive; [ ] = remark or other dose. % is set by controls: 0 for no effect and ±100 for the full control effect; potency is the fitted concentration of half-maximal effect. This is a random part of the collection; 0.87% or so of the library scored in one or more.
SMILES | VACV mCherry inh | VACV Venus inh
CC(C)(C)OC(=O)C[C@@H]1C/C=C\C[C@@H](CC(=O)N[C@H](CO)Cc2ccccc2)C(=O)NCCOC1=O | i | -6%
COC(=O)COc1cc(C)cc2oc(=O)c3c(c12)CCCC3 | -21% | -13%
COc1cc(OC)cc(-c2sc3ccc(OC)cc3c2-c2ccc(OCCN3CCOCC3)cc2)c1 | i | ?
COc1cc2ccccc2cc1C(=O)NCCCN1CCOCC1 | -11% | 10%
COc1ccc(NC(=O)CCN2C(=O)c3ccccc3C2=O)c(OC)c1 | i | -9%
O=S1(=O)CC(N2CCCC2)CN1Cc1cn(Cc2cccc(C(F)(F)F)c2)nn1 (centres undefined) | 16% | -1%
CC(C)C(C(=O)NC1CCCC1)N(CC1CCCO1)C(=O)CNS(=O)(=O)c1ccc(F)cc1 (centres undefined) | -10% | -7%
C/C(=N\NC(=S)Nc1c(C)cccc1C)c1cc2ccccc2o1 | 7.1µM* | ?
Cn1c(CN2CCCC2)nc2cc(NC(=O)c3ccco3)ccc21 | -1% | -13%
COc1ccc(C(=O)Oc2ccc(Br)cc2C(=S)N2CCOCC2)cc1 | ? | -18%

# Continuation.
SMILES | VACV mCherry inh | VACV Venus inh
CCCCNc1c(-c2ccc(-c3cccc(Cl)c3)cc2)nc2ccccn12 | ? | -28%
CCOc1ccc(OCCC(=O)N(CC)CC(=O)Nc2c(F)cccc2F)cc1 | -13% | -11%
COc1cc2[nH]c(=S)n(C3CCN(Cc4ccccc4)CC3)c(=O)c2cc1OC | -1% | 0%
COc1ccc(/C(=N\O)c2nccc3cc(OC)c(OC)cc23)cc1OC | i | -10%
COc1ccccc1CNC(=O)C1CCN(C(=O)c2sccc2-n2cccc2)CC1 | -13% | -14%
Cc1csc(NC(=O)c2ccc(Cn3nc(C)c(Br)c3C)o2)n1 | ? | ?
O=S(=O)(NCCOCC(F)(F)C(F)F)c1ccc2oc3ccccc3c2c1 | -26% | ?
O=C(CSc1nc(=O)n(CCN2CCOCC2)c2c1CCC2)Nc1cccc(Cl)c1 | -1%[7.34 µM] | -3%[7.34 µM]
COc1ccccc1-c1cc2nc(NCCc3ccncc3)ccn2n1 | i | -6%
O=C(CSc1nnc(-c2ccccc2)c(-c2ccccc2)n1)NCCc1ccccc1 | 13% | 17%

# Remaining list, next part:
SMILES | VACV mCherry inh | VACV Venus inh
Cc1ccc(-n2nc(C)c3c(C(=O)OCC(=O)N(C)C4CCS(=O)(=O)C4)cc(-c4ccccc4)nc32)cc1 (centres undefined) | i | -7%
Cc1ccc(Sc2ccc(N3CCCC(C(=O)Nc4ccc(F)cc4)C3)nn2)cc1 (centres undefined) | -14% | -13%
Cc1ccc(S(=O)(=O)N(C)c2ccc(OC(=O)c3ccc(=O)[nH]c3)cc2)cc1 | -14% | -24%
COc1ccc(-c2ccc(S(=O)(=O)n3nc(OC(=O)c4cccs4)cc3N)cc2)cc1 | i | ?
CC(=O)Nc1ccc(SCC(=O)NCC2(N3CCCCC3)CCCCC2)cc1 | -13% | 0%
CN(CCOc1ccccc1)C(=O)C1CCC(=O)N(CCCN2CCOCC2)C1 (centres undefined) | -10% | 1%
COc1cc(C(=O)NCc2ccccc2Cl)ccc1OCC(=O)N1CCOCC1 | -14% | -11%
O=c1c2ccccc2nc(/C=C\c2cccc(Br)c2)n1-c1ccc(O)cc1 | -22% | -15%
O=c1c2ccccc2nc(/C=C/c2ccc3c(c2)OCO3)n1-c1cccc(O)c1 | -21% | -15%
CCc1noc(C)c1C(=O)N(C)CC(=O)Nc1ccc(Cl)c(Cl)c1 | -24% | -20%

# Continued:
SMILES | VACV mCherry inh | VACV Venus inh
Cc1ccccc1NS(=O)(=O)c1ccc2[nH]cc(C(=O)NC(C)c3ccccc3)c(=O)c2c1 (centres undefined) | -9% | -11%
CC1CCN(CC(O)CN2c3ccccc3Sc3ccccc32)CC1 (centres undefined) | -17% | ?
Cc1nc(-c2ccc(Cl)cc2)sc1C(=O)CBr | i | -6%
COc1ccc(OCCCC(=O)Nc2nc(-c3ccccn3)cs2)cc1 | ? | -4%
Cc1c(NS(=O)(=O)c2ccc3c(c2)CCN3C(=O)C2CC2)c(=O)n(-c2ccccc2)n1C | -8% | -6%
CC(=O)c1ccc(S(=O)(=O)N2CCC(c3nc4ccccc4[nH]3)CC2)cc1 | -8% | -9%
Cc1ccc(C)c(NC(=O)C(C)N(c2ccccc2)S(C)(=O)=O)c1 (centres undefined) | -7% | -8%
COc1ccc(-n2cc(-c3ccc(C)cc3)[n+]3c2SCC3)cc1 | i | -26%
Cc1ccc(-c2cc3c(n2-c2ccc(F)cc2)CC(C)(C)CC3=O)cc1 | -14% | -14%
O=C(CCCc1ccccc1)Nc1ccc(S(=O)(=O)N2CCOCC2)cc1 | -10% | -8%

# Continued.
SMILES | VACV mCherry inh | VACV Venus inh
Cc1nonc1NC(=O)CSc1nnc(N)s1 | -20% | 1%
O=C(Nc1c(C(=O)Nc2ccccc2)cnn1-c1ccccc1)c1ccco1 | i | -14%
CC(NS(=O)(=O)c1ccccc1Cl)C1CC2CCC1C2 (centres undefined) | ? | -3%
COc1ccc(/C=C/C(=O)Nc2ccc3c(c2)OCCO3)cc1OC | i | -17%
O=C(NCc1ccc2[nH]c3c(c2c1)CCCC3)c1ccc(S(=O)(=O)N2CCCC2)cc1 | -6% | 7%
CC1CC(NC(=O)CC#N)CC(C)(C)C1 (centres undefined) | i[7.34 µM] | 5%[7.34 µM]
COc1ccc(S(=O)(=O)c2ccc(OC)cc2)cc1 | 2% | -5%
COc1cccc(CN(C)C(=O)c2cccc(S(=O)(=O)N3CCN(c4ccccc4)CC3)c2)c1 | -26% | ?
Cc1cccc(N2CCN(C(=O)/C=C/c3ccco3)CC2)c1C | -2% | -15%
Nc1ccccc1O | i | 1%

# Next part.
SMILES | VACV mCherry inh | VACV Venus inh
Cc1cc(C)c(NC(=O)Cn2nnc(S(=O)(=O)c3ccc(C)c(C)c3)c2N)c(C)c1 | -10% | -5%
O=C(c1ccc2c(c1)OCO2)C1CCCN(CC2CCCCC2)C1 (centres undefined) | -3% | -7%
Cc1cc(C)n(CCN(C)Cc2nc(Cc3ccccc3F)no2)n1 | -1% | 9%
N[C@@H](CCC(=O)N[C@@H](CS)C(=O)NCC(=O)O)C(=O)O | -6% | -3%
COc1cccc(C2OC(=O)c3ccccc3N2C(C)=O)c1OC(C)=O (centres undefined) | -19% | -9%
O=C(NCC1CCN(S(=O)(=O)c2ccccc2)CC1)Nc1ccc(F)cc1 | i | -10%
O=C(Nc1cc(C(F)(F)F)ccc1N1CCOCC1)c1ccc(Br)o1 | -12% | -13%
CC(C)(C)S(=O)(=O)N1C[C@H]2C(=CC[C@@H]3C(=O)N(c4ccccc4)C(=O)[C@@H]32)[C@H]1CCO | -16% | ?
CC(=O)Nc1ccc(NC(=O)C(C)OC(=O)C23CC4CC(CC(Cl)(C4)C2)C3)cc1 (centres undefined) | -7% | -11%
S=c1nc(-c2cc(Cl)ccc2Cl)[nH][nH]1 | i | -9%

# In another format: results already given
> N[C@@H](CCC(=O)N[C@@H](CS)C(=O)NCC(=O)O)C(=O)O
  VACV mCherry inh: -6% | VACV Venus inh: -3%
> COc1cccc(C2OC(=O)c3ccccc3N2C(C)=O)c1OC(C)=O (centres undefined)
  VACV mCherry inh: -19% | VACV Venus inh: -9%
> O=C(NCC1CCN(S(=O)(=O)c2ccccc2)CC1)Nc1ccc(F)cc1
  VACV mCherry inh: i | VACV Venus inh: -10%
> O=C(Nc1cc(C(F)(F)F)ccc1N1CCOCC1)c1ccc(Br)o1
  VACV mCherry inh: -12% | VACV Venus inh: -13%

# (more compounds)
SMILES | VACV mCherry inh | VACV Venus inh
CCO[C@@H]1OC(C(=O)Nc2ccccc2)=C[C@H](c2csc3ccccc23)[C@H]1CCCO | -3% | ?
Cc1ccc(C(=O)Nc2ccc3c(c2)OCCO3)o1 | -15% | -7%
COc1ccc(N2CCN(C(=O)c3ccc4c(c3)N(Cc3cccc(Cl)c3)C(=O)c3ccccc3S4(=O)=O)CC2)cc1 | -19% | -12%
CN(C(=O)Nc1ccccc1)C1CCCCC1 | -21% | -13%
COc1ccc([C@H]2CC(=O)C[C@@H](CCn3ccnn3)O2)cc1 | 26% | 7%
O=c1c2ccccc2c(/C=N/NS(=O)(=O)c2ccccc2)c(O)n1-c1ccccn1 | -15% | 218%[activator]
Cc1ccnc(NS(=O)(=O)c2ccc(NC(=O)c3ccc(S(=O)(=O)N4CC(C)OC(C)C4)cc3)cc2)n1 (centres undefined) | -10% | -6%
CCSC1=N/C(=C\c2ccc(C(=O)O)cc2)C(=O)S1 | -11% | -1%
OC(CN1C2=NCCN2c2ccccc21)c1ccc2c(c1)OCO2 (centres undefined) | -26%[1.46 µM] | 11µM*
CN(C)S(=O)(=O)c1ccc(S(=O)(=O)N2CCCC(C(=O)NC3CCCC3)C2)cc1 (centres undefined) | -14% | -13%

# (cont.)
SMILES | VACV mCherry inh | VACV Venus inh
OC(CCc1ccncc1)c1ccccc1 (centres undefined) | i | -8%
CCCCCN1C(=O)c2ccccc2[C@@]2(C(=O)OCC)Cc3cc(Cl)ccc3[C@@H]12 | ? | -25%
CC(C)(C)[C@@H]1C=C(C(=O)NC2CC2)O[C@H](OCc2ccc(CO)cc2)C1 | -10% | -17%
Cc1ccc2c(c1)C(c1ccccc1)N(C(=O)c1ccc(S(=O)(=O)N3CCCC3)cc1)CC(=O)N2 (centres undefined) | -21% | -27%
Cc1cc(C)cc(NC(=O)Cc2ccc(-n3cccc3)cc2)c1 | -15% | -10%
Cc1oc(-c2cccs2)nc1CN1CCC(CO)(CCOc2ccccc2)CC1 | -9% | -16%
O=C(CN1C(=O)COc2ccc(S(=O)(=O)N3CCCCCC3)cc21)NCc1ccc(Cl)cc1 | -17% | -10%
CC1CN(c2ccc(Cl)cc2[N+](=O)[O-])CCN1S(C)(=O)=O (centres undefined) | -13% | -21%
O=C(CNc1ccc(Cl)c(C(F)(F)F)c1)N1CCN(S(=O)(=O)c2ccccc2)CC1 | ? | -23%
O=C(CN(C(=O)c1csnn1)c1cccc2c1CCCC2)NCc1ccc(F)cc1 | -23% | -11%

# Other results follow.
SMILES | VACV mCherry inh | VACV Venus inh
CN(C)S(=O)(=O)c1cccc(-c2nn(-c3ccccc3)cc2/C=C2\SC(=S)NC2=O)c1 | ? | ?
CCOc1cc2[nH]c(=S)n(Cc3ccc(C(=O)NCCN(CC)CC)cc3)c(=O)c2cc1OCC | i | -12%
Cc1cc(C)c2c(CC(=O)Nc3nccs3)coc2c1 | -7% | 0%
CC1=C(C(=O)OCC2CCCO2)C(c2ccsc2)C2=C(CCCC2=O)N1 (centres undefined) | -8% | -15%
CCc1nc(Cl)c(C#N)c2c1CCCC2 | i | -9%
O=C(O)c1ccc(Cl)c(S(=O)(=O)Nc2ccc3cn[nH]c3c2)c1 | 3% | -1%
COP(=O)(OC)c1nc(-c2ccccc2)oc1N1CCOCC1 | -13% | -7%
CCOC(=O)C(=O)N(Nc1ccc(C)cc1)c1ccc(C)cc1 | -17% | -4%
CC(C)[C@H]1c2ccc(F)cc2CC[C@@]1(CCN(C)CCCc1nc2ccccc2[nH]1)OC(=O)C1CC1 | ? | ?
O=C(CN1C(=O)c2cccnc2Oc2ccc(Cl)cc21)NCCCN1CCCCC1 | -13% | -7%

# Continuation.
SMILES | VACV mCherry inh | VACV Venus inh
CN(N=O)C(=O)N[C@H]1C(O)C(O)C(CO)O[C@@H]1O (some centres undefined) | -11% | -3%
Cc1ccc(N2C(=O)Nc3ccccc3C2(O)C(=O)NCCCOC(C)C)cc1C (centres undefined) | i | -1%
O=C(COC(=O)[C@H](Cc1ccccc1)NC(=O)c1cccs1)Nc1ccccc1C(F)(F)F | -15% | -2%
CCOC(=O)c1cnc2c(c(C3CC3)nn2C)c1N1CCOCC1 | -2% | -16%
CCOc1ccc(Nc2nc(-c3cccc(Cl)c3)c3c(n2)-c2ccccc2OC3)cc1 | -12% | -14%
CC(/C=N/NC(=O)c1ccncc1)=C\c1ccccc1 | -14% | -19%
CCc1nnc(N/N=C/c2ccccc2Cl)n1N | ? | ?
Cc1ccc(NC(=O)CN2CCN(C(=O)c3ccco3)CC2)cc1 | i | -15%
COc1ccc(-c2cc(NC(C)=O)c3ncc(-c4ccccc4)n3c2)cc1OC | i | -9%
CCOc1ccc(NC(=O)CSC2=Nc3ccccc3C3=NC(CC(=O)NCc4ccco4)C(=O)N23)cc1 (centres undefined) | -26% | -11%

# Remaining list, next part:
SMILES | VACV mCherry inh | VACV Venus inh
Cc1noc(C)c1-c1ccc(C(=O)NCc2ccco2)c2occc12 | ? | ?
O=C(CNC(=O)c1ccccc1F)N/N=C/c1cc(Br)ccc1OC(=O)/C=C/c1ccco1 | ? | -25%
O=C(O)c1cc([N+](=O)[O-])c(N2CCCC2)c([N+](=O)[O-])c1 | i | -13%
Cc1cc(-c2nnc(CCC(=O)N(C)Cc3cccc4ccccc34)o2)no1 | -8% | -15%
COc1cccc(-n2cc(C(=O)NCc3ccccc3OC)c3ccccc3c2=O)c1 | -12% | -13%
Cc1ccc(C(=O)c2oc3ccccc3c2NC(=O)Cc2ccccc2)cc1 | -6% | -6%
O=C1NC(Cc2c[nH]c3ccccc23)C(=O)N1CCOc1ccccc1 (centres undefined) | -23% | ?
O=S(=O)(Nc1nc2ccccc2nc1-[n+]1cccc(N=C([O-])c2ccc(Cl)cc2)c1)c1ccccc1 | -13% | 15%
C1CNC(C23CC4CC(CC(C4)C2)C3)=N1 | i | -7%
Nc1nnc(-c2ccc(Cl)cc2)s1 | i | -6%
CCOC(=O)C1(C)CCN1C(=O)c1cncc(Br)c1 (centres undefined) | 10% | 4%

# Compound activity from PubChem.
